Bioassay records: PubChem BioAssay, several laboratories
RecA splice inh = Mtb RecA intein splicing inhibitors, primary screen, biochemical, fluorescence, HTS; Protein RecA (Mycobacterium tuberculosis (strain ATCC 25618 / H37Rv)), P9WHJ3; cell-free RecA intein splicing; inhibition, %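 (about 9 µM by stock and volumes)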; hit rate 0.75% among 290,000; AID 2221, 2009; in the data active = inhibition above about 30%; inconclusive = no clear call, values can overlap the other calls;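 also: 0% = vehicle wells and 100% = reference inhibitor control wells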
Target sequence (P9WHJ3 whole entry, looked up, canonical isoform): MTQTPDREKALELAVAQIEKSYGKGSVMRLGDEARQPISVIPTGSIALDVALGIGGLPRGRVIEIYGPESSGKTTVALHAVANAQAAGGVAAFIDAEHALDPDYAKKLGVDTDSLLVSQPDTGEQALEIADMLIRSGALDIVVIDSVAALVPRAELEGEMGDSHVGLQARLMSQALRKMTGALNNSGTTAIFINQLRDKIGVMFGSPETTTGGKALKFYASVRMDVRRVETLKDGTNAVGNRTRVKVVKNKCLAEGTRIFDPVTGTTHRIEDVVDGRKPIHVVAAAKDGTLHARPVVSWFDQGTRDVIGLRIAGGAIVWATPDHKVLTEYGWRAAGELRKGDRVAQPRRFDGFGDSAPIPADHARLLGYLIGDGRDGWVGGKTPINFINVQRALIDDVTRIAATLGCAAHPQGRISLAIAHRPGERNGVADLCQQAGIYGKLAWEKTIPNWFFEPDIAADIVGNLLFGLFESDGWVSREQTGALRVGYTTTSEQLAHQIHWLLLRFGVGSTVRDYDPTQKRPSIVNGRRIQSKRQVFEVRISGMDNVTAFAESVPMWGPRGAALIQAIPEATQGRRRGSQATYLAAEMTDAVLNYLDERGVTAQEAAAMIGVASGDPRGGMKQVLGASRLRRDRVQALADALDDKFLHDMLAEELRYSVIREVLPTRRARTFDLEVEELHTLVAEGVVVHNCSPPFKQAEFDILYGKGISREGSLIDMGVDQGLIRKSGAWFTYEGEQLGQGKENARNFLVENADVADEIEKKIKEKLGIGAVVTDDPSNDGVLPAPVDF
YopH PTP inh = YopH tyrosine phosphatase inhibitors, primary screen, biochemical, fluorescence Ex485/Em525 | hit rate 0.16% among 140,000 | inhibition, %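 (about 10 µM by stock and volumes)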 | YopH tyrosine phosphatase [Yersinia enterocolitica];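 active = inhibition of 50% or more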;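 also: controls were vehicle for no effect and minimum signal wells for full effect; inactives centre near -20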
Arbovirus inh = antivirals against arbovirus infection, primary screen, cell-based, full library, 10K replicate subset; inhibition, % at 10 µM; arbovirus infection cell-based antiviral screen; hit rate 0.37% among 200,000; AID 1251, 2008;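 active = inhibition from about 30%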;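 also: bluetongue infection of BSR cells; cell survival read as ATP light after 72 h; 0% = infected wells without compound and 100% = uninfected wells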
Mtb betalactam = beta-lactam sensitization of Mtb H37Rv, H37Rv; M. tuberculosis H37Rv growth with meropenem, percent inhibition; hits of this screen are not shown here; inhibition, % at 25 µM; hit rate 0.27% among 330,000; AID 434955, 2010;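 active = about 74% or more and at least 40 points above the plate without the antibiotic, then above 30% in a dose series; inconclusive = first-round hits that could not be retested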;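 also: growth measured after seven days incubation then overnight dye step; 0% = bacteria only wells and 100% = bacteria with antibiotic; twin plates without the antibiotic show which effects depend on it; some results filed as inactive read as strong as hits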
Mtb H37Rv = M. tuberculosis H37Rv growth inhibitors, H37Rv strain (AID 1626). hit rate 0.95% among 220,000. M. tuberculosis H37Rv growth inhibition; higher % means a stronger effect. inhibition, % at 10 µM; hits with a dose series show IC50 in µM;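 active = confirmed in a dose series; inconclusive = inhibition above 80% but not taken into the dose series; inactive = below 80% or under 30% at every dose of the series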;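 also: bacteria incubated seven days before Alamar blue readout; 0% = bacteria only wells and 100% = bacteria with antibiotic wells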
Arbovirus inh repeat = second read-out of Arbovirus inh, no call of its own (marks repeat the call); inhibition, %; measured here: 10K subset replicate screen; many hits read low in the repeat;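 first of two repeat runs on a subset; 0% = infected and 100% = uninfected wells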
* = called active by the depositor; u = inconclusive; x = not tested or not shown.

SMILES	RecA splice inh	YopH PTP inh	Arbovirus inh	Mtb betalactam	Mtb H37Rv	others
O=[N+]([O-])c1ccc(Cc2nnc(-c3ccccc3Cl)o2)cc1	-5.2	x	-5	-6	8%
O=C(NCCSCc1c(F)cccc1Cl)c1ccco1	2.4	-48	4	-2	0%
CC(NC(=O)CCNC(=O)c1ccccc1Cl)C1CC2CCC1C2 (centres undefined)	1.2	-5	5	3	3%
CCOC(=O)CC1(NC(=O)c2cc(COc3ccc(F)c(F)c3)on2)CCCCC1	9.2	x	x	8	x
Cc1cc(/C=N/n2cnnc2)c(C)n1-c1cccc(C(=O)O)c1	-2.0	-25	-2	-3	6%
Cc1ccccc1-n1c(O)c(/C=N/N2CCOCC2)c(=O)[nH]c1=S	-4.2	-22	2	-7	9%
CCN1C(=O)/C(=C2/C=Cc3cc(C)ccc3N2CC)N(C)C1=S	2.1	14	-4	14	0%
COc1cccc(CN2CCC(C(=O)N3CCN(c4ccccc4F)CC3)CC2)c1OC	0.2	-20	-9	-7	-6%
O=C(Cc1cn2ccsc2n1)NCc1ccccc1	1.0	-30	1	-4	6%
CC(=O)Nc1ccc(OCC(O)Cn2cncn2)cc1 (centres undefined)	-0.7	x	x	4	x
CC1=CC(C)(C)n2c(O)c(N=N)c3c(C)ccc1c32	11	x	x	44	20%
O=[N+]([O-])c1cc(C(F)(F)F)ccc1Sc1nccn1Cc1ccccc1	7.5	-32	-14	-12	4%
COc1ccc(NC(=O)c2cc(Cl)ccc2Cl)c([N+](=O)[O-])c1	0.3	-38	-14	7	0%
COc1ccc(C2C(C(=O)/C=C/c3ccco3)=C(O)C(=O)N2CCN2CCOCC2)cc1 (centres undefined)	-1.5	x	20	-20	-8%
Cc1ccc(/C=C/C(=O)NCc2cccs2)o1	2.1	x	-8	0	-6%
O=C(Nc1cccnc1)c1cccc(F)c1	3.0	-19	0	6	69%
Cc1cccc(C)c1NC(=O)CSc1ncnc2nc[nH]c12	1.9	-20	5	-6	-11%
O=c1[nH]c2ccccc2c(=O)n1-c1cccc(Cl)c1	0.8	-48	5	0	2%
COc1cccc(C2CC(c3cccs3)=NN2C(=O)CCC(=O)O)c1OC (centres undefined)	0.2	x	x	-13	x
COc1ccc(Cl)cc1NC(=O)Cn1nc(-c2ccc(C)cc2)n(C)c1=S	-2.2	-23	-12	0	-8%
COc1ccc(S(=O)(=O)N(CC(=O)NCCC(C)C)c2ccccc2)cc1OC	-2.2	x	-15	3	-1%
CCCCC(=O)Nc1nnc(SCC(=O)Nc2ccc(OC)cc2)s1	2.8	x	x	1	x
Cc1ccc(S(=O)(=O)Nc2cccc3cccnc23)cc1	12	-4	-45	92	-3%
COc1ccc(NC(=O)CCSc2ccc(C)cc2)cc1	-1.1	-10	2	54	10%
CCOC(=O)C1CCN(Cc2cnc(Oc3ccc(N)cc3)s2)CC1	-2.1	-21	-10	5	-2%
(more compounds)
SMILES	RecA splice inh	YopH PTP inh	Arbovirus inh	Mtb betalactam	Mtb H37Rv	others
COc1ccc(F)cc1C(=O)C1CCCN(Cc2cccn2-c2ccccn2)C1 (centres undefined)	1.1	x	-21	-1	-3%
O=C(/C=C\c1ccc(-c2cccc([N+](=O)[O-])c2)o1)N1CCOCC1	-0.3	x	-2	-3	4%
COC(=O)c1oc2ccc(Cl)cc2c1N	-1.5	-38	1	-4	-2%
Cc1c(CCN)ccc2c1[nH]c1ccccc12	0.9	x	x	17	16%
CCN(C(=O)c1ccc(S(C)(=O)=O)cc1)C12CC3CC(CC(C3)C1)C2	2.9	-21	11	-2	-6%
O=C(C=C1NCCN1)c1ccccc1	1.6	x	x	1	x
COc1cc(OC)cc(C(=O)N2CCN(c3ncccn3)CC2)c1	2.3	-14	-1	-23	-6%
CCN(CC)S(=O)(=O)c1ccc(C(=O)NCCN2C(=O)S/C(=C\c3cccnc3)C2=O)cc1	13	x	4	-1	2%
CCCC(=O)NC(c1ccco1)c1cc(Cl)c2cccnc2c1O (centres undefined)	1.5	-16	-24	-1	-7%
COc1ccc(C(=O)NC(C)CCc2ccccc2)c(O)c1 (centres undefined)	-1.5	x	x	7	x
COC(=O)/C=C/c1ccc(-n2cncn2)cc1	0.5	x	7	-4	7%
CCCCn1c(N)c(NCCC(C)C)c(=O)[nH]c1=O	x	52*	-8	-9	-1%
C/C(=N\Nc1nc(N)cc(Cl)n1)c1ccc(Cl)c(Cl)c1	0.2	x	-1	14	-6%
CC(C)CC(=O)N[C@H](C(=O)N[C@H](C(=O)N[C@@H](CC(C)C)[C@@H](O)CC(=O)N[C@@H](C)C(=O)N[C@@H](CC(C)C)[C@@H](O)CC(=O)O)C(C)C)C(C)C	x	-48	0	-2	-4%
Cn1c(=O)c2cc(S(=O)(=O)NC(C(=O)NC3CCCCC3)c3ccccc3)ccc2n(C)c1=O (centres undefined)	x	-26	-12	x	2%
Cc1ccc(C(=O)NNC(=O)c2cc(OCC(F)(F)F)ccc2OCC(F)(F)F)cc1	-2.6	2	-6	-3	-1%
COc1ccc(CN2CCC(C(=O)c3ccc(F)cc3)CC2)cc1	-1.7	x	x	-2	x
Cc1ccc(NS(=O)(=O)c2cc(C(=O)Nc3cccc([N+](=O)[O-])c3)ccc2C)cc1	4.5	-26	-36	45	23%
C[C@@H](CO)NC(=O)c1ccc2c3n(nc2c1)-c1ccc(Cl)cc1CO3	-1.5	x	x	14	-2%
CCN1C(=O)C2(C(C(=O)c3ccc(C)o3)=C(O)C(=O)N2CCCN2CCOCC2)c2ccccc21 (centres undefined)	4.3	-23	-1	1	7%
CCOc1ccc(S(=O)(=O)Nc2cccc(C(=O)N(C)Cc3cccc(OC)c3OC)c2)cc1	2.4	x	x	3	x
CCOc1ccc(N2C(=O)CC(N(CCc3ccc(OC)cc3)C(=O)c3cccc(F)c3)C2=O)cc1 (centres undefined)	0.1	-24	-7	-1	-6%
CC(C)(C)c1ccc(-c2nc(C#N)c(N3CCC(C(N)=O)CC3)o2)cc1	-2.9	x	x	u	x
Cc1csc(NS(=O)(=O)c2cccc([N+](=O)[O-])c2)n1	-1.8	x	1	-3	-3%
C=CCNC(=S)N1CCN(c2ccccc2Cl)CC1	4.0	x	x	-4	19%
Next section.
SMILES	RecA splice inh	YopH PTP inh	Arbovirus inh	Mtb betalactam	Mtb H37Rv	others
O=C(COc1ccccc1Cl)c1ccc[nH]1	2.9	x	0	-3	1%
O=C(NC1CCCCC1)c1ccccc1NC(=S)NC(=O)C1CCC1	-0.1	-43	2	6	13%
Cc1ccc(S(=O)(=O)n2[nH]c(=O)cc2NC(=O)c2cccs2)cc1	27	x	-1	-4	-5%
Cc1ccc(-c2noc(CN(C(=O)CCCN3C(=O)c4ccccc4C3=O)C(C)C)n2)cc1	x	-4	x	-4	-1%
O=C(Cn1c(=O)cnc2ccccc21)NCC(=O)Nc1ccc(F)c(F)c1	-1.8	x	x	-14	x
N=C1C(c2ccccc2)=C(O)CN1NC(=O)c1ccccc1	-0.1	x	3	-11	-6%
Cc1ccc(C(=O)NNC(=O)c2ccc(C)cc2)cc1	-0.5	x	19	2	-2%
O=C(O)c1ccc(N/N=C/c2c[nH]c3ccccc23)cc1	-6.1	x	x	5	x
COc1ccc(Nc2ncnc3sccc23)c(OC)c1	-0.8	x	x	9	x
CSc1ccc(C(=O)C2CCCN(C)C2)cc1 (centres undefined)	3.4	x	-2	5	-4%
COc1cc2c(cc1NC(=O)COC(=O)[C@@H](NC(=O)c1ccccc1)C(C)C)oc1ccccc12	0.8	-26	3	86	u
O=C1N/C(=C\c2ccc(O)cc2)C(O)=C1C=NCc1ccccc1	6.8	-18	-31	3	-2%
O=C(CCc1ccccc1)NNC(=O)Nc1ccc(Br)cc1	0.6	x	x	-1	x
O=C(NCCCN1CCCC1)c1ccc(Cn2c(=S)[nH]c3ccc(Br)cc3c2=O)cc1	-3.4	x	-25	98	32%
CCC(CC)C(=O)c1c[nH]c(C(=O)NCc2ccccn2)c1	-1.8	x	11	6	0%
CC(=O)c1ccc(NC(=S)N(Cc2ccccc2)C(C)C2CC2)cc1 (centres undefined)	7.2	x	23	-1	3%
COc1ccc(N(CC(=O)NCCc2cccc(C)c2)S(=O)(=O)c2c(C)noc2C)cc1	1.2	x	x	-4	x
O=C(NCc1ccccn1)c1cn(-c2ccccc2)nc1-c1ccc(Cl)cc1	-2.1	-10	7	-1	2%
Cc1c(Cl)c(C(F)F)nn1CC(=O)NC1C(=O)N2C(C(=O)O)=C(CSc3nnnn3C)CSC12 (centres undefined)	1.5	x	9	x	-3%
O=C(NCC1CCCO1)c1cccc(NC(=O)c2cccs2)c1 (centres undefined)	-3.6	x	-15	-5	3%
Cc1nn(Cc2ccccc2)c(C)c1C=C1C(=O)NC(=O)NC1=O	-0.7	-32	-6	2	-2%
Cc1ccc(-c2nc(CS(=O)CC(=O)N3CCC4(CC3)OCCO4)c(C)o2)cc1 (centres undefined)	x	-16	5	-4	1%
O=C1COc2ccc(C(=O)C[n+]3cccc(O)c3)cc2N1	-0.4	x	x	1	1%
CC(Cc1cccs1)NC(=S)Nc1ccc(Cl)c(Cl)c1 (centres undefined)	6.8	5	-3	-4	2%
O=C(COC(=O)c1cncc(Br)c1)NC1CCCCCC1	x	x	7	10	6%
Continuation.
SMILES	RecA splice inh	YopH PTP inh	Arbovirus inh	Mtb betalactam	Mtb H37Rv	others
COc1ccc(Nc2cc(C)nc(N3CCN(C(=O)c4ccc5c(c4)OCO5)CC3)n2)cc1	-1.3	x	x	-1	x
CCc1ccc(CN2CC(C(=O)O)CC2=O)cc1 (centres undefined)	-1.2	-34	3	x	-6%
Cc1ccccc1NC(=O)C(=O)NC(C)CCc1ccccc1 (centres undefined)	4.6	-31	-9	3	-1%
Cc1ccc(NC(=O)NC(=O)N(C(C)C)S(=O)(=O)c2ccc(C)cc2)cc1	-1.0	x	16	3	-3%
O=C(c1cc(-c2ccc(F)cc2)on1)N1CCCC1	1.2	-15	2	-3	x
CCCCc1nc2n[nH]c(N)c2c2c1CCC2	x	-26	6	-14	5%
Cc1ccc(C)c(Sc2ccc(NC(=O)CCl)cc2)c1	91*	-17	-4	91	10%
COc1ccc(C)cc1NC(=O)CSc1nc(=O)n(CCCN2CCOCC2)c2c1CCCC2	3.1	x	x	0	x
CC(=O)N1CCc2cc(S(=O)(=O)NCCC(=O)NC3CCCCCC3)ccc21	-4.5	x	x	5	x
CC(C)(C)NC(=O)C(c1ccncc1)N(C(=O)Cn1nnc(-c2cccs2)n1)C1CCCCC1 (centres undefined)	-1.2	-15	-1	1	-11%
COc1cc(CCC(=O)Nc2ccncc2Cl)cc(OC)c1OC	1.6	x	x	u	x
CC(C)c1nccn1S(=O)(=O)c1cc([N+](=O)[O-])ccc1Cl	1.2	-25	-6	2	-18%
CC(C)C[C@H](NC(=O)OC(C)(C)C)C(=O)N[C@@H](CO)[C@H](O)[C@@H]1C[C@@H]1C(=O)N1CCCC1	-0.4	x	x	2	x
CC(=O)C1C(c2ccc(OC(F)F)cc2)NC(=O)NC1(O)C(F)(F)F (centres undefined)	-0.4	-15	2	-13	-2%	Arbovirus inh repeat=0
NS(=O)(=O)c1ccc(NC(=O)c2ccc3c(c2)OCO3)cc1	-0.9	x	x	0	x
Cc1ccc(-c2nc3cccnc3o2)cc1NC(=O)COc1ccc(Cl)cc1C	-4.1	-4	-13	13	-4%	Arbovirus inh repeat=-9
Cc1ccccc1-c1nc(CN2CCN(C(=O)c3ccco3)CC2)c(C)o1	-0.4	x	x	-14	x
COc1ccc(C2CC(c3ccccc3)=NN2C(=O)COC(=O)C2(C)CC2(Cl)Cl)cc1 (centres undefined)	4.6	x	3	1	-2%

In the list so far, 8 have an aryl thioether with sulfur outside any ring:
SMILES	RecA splice inh	YopH PTP inh	Arbovirus inh	Mtb betalactam	Mtb H37Rv	others
O=[N+]([O-])c1cc(C(F)(F)F)ccc1Sc1nccn1Cc1ccccc1	7.5	-32	-14	-12	4%
Cc1cccc(C)c1NC(=O)CSc1ncnc2nc[nH]c12	1.9	-20	5	-6	-11%
CCCCC(=O)Nc1nnc(SCC(=O)Nc2ccc(OC)cc2)s1	2.8	x	x	1	x
COc1ccc(NC(=O)CCSc2ccc(C)cc2)cc1	-1.1	-10	2	54	10%
CSc1ccc(C(=O)C2CCCN(C)C2)cc1 (centres undefined)	3.4	x	-2	5	-4%
Cc1c(Cl)c(C(F)F)nn1CC(=O)NC1C(=O)N2C(C(=O)O)=C(CSc3nnnn3C)CSC12 (centres undefined)	1.5	x	9	x	-3%
Cc1ccc(C)c(Sc2ccc(NC(=O)CCl)cc2)c1	91*	-17	-4	91	10%
COc1ccc(C)cc1NC(=O)CSc1nc(=O)n(CCCN2CCOCC2)c2c1CCCC2	3.1	x	x	0	x

Only part of the results is shown. The share of hits here may be higher or lower than overall.
